MARV entry inh – inhibitors of Marburg virus binding or cell entry | Marburg virus pseudotyped entry inhibition, cell reporter; control for the full effect not named in the record; about a third of the inactives were read at about 46 µM | Potency, µM (doses to about 37.8 µM), without a hit: at the top dose activity change, negative = inhibition, most hits filed as inhibitors | 300,000 tested, 1.8% active; active = well fitted inhibition curve with a large enough effect; inconclusive = small, poorly fitted or top-dose-only effect, or effect the other way; inactive = flat fitted curve, though single readings scatter; tested in HEK293 cells; about a fifth of its hits are not listed in these tables; note: % is set by controls: 0 for no effect and ±100 for the full control effect; luciferase read-out
LASV entry inh – inhibitors of Lassa virus binding or cell entry; Lassa virus pseudotype entry inhibition, cell reporter; control for the full effect not named in the record; Potency, µM (top dose mostly 37.9 µM), without a hit: at the highest dose activity change, negative = inhibition, hits mostly inhibitors; 300,000 tested, 1.2% active; AID 540256; active means well fitted inhibition curve with a large enough effect; inconclusive means small, poorly fitted or top-dose-only effect, or effect the other way; inactive means flat fitted curve, though single readings scatter; tested in HEK293 cells; note: % is set by controls: 0 for no effect and ±100 for the full control effect; nearly all actives have a fitted effect of over 50% in size; luciferase read-out
RE007 growth inh – less growth of the S. pombe RE007 Vpr strain; AID 651644; S. pombe RE007 Vpr strain, BacTiter-Glo ATP luminescence, 24 h; control for the full effect not named in the record; 360,000 tested, 0.21% active; Potency, µM (highest dose often 92.2 µM), without a hit: top-dose activity change, negative = less growth; active = well fitted falling curve with a large enough effect; inconclusive = small, poorly fitted or top-dose-only effect; inactive = no such curve, though single readings can be large or run the other way;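 note: % is set by controls: 0 for no effect and ±100 for the full control effect; nearly all actives have a fitted effect of over 50% in size; the assay follows cell death caused by Vpr and the record does not say whether a fall means rescue or toxicity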
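Fission yeast strain RE007, carrying one chromosomally integrated HIV-1 vpr copy, was seeded at OD 0.01 in PMG+AL medium with 23 nL pinned compound. After 24 h at 30 °C and 99% humidity, viability was read by BacTiter-Glo luminescence.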
SARS PLP yeast – SARS-CoV PLP inhibition in yeast. S. cerevisiae expressing SARS-CoV PLpro, growth rescue; control for the full effect not named in the record. Potency, µM (titrated, usually from 32.9 µM), for inactives: at the top dose activity, positive = growth rescue. 330,000 tested, 0.19% active; note: 0% is about no effect; nearly all actives have a fitted effect of over 55% in size; growth read by luminescence after 48 h
NS1 inh – influenza NS1 inhibition; 270,000 tested, 0.4% active; Potency, µM (highest dose often 46.1 µM), for the others: at the top dose activity, positive = more growth; S. cerevisiae slowed by influenza A NS1, growth recovery by OD600; note: actives are rising curves; nearly all actives have a fitted effect of over 50% in size
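Compounds were scored for reversing the slow growth caused by influenza A NS1 in S. cerevisiae, measured by optical density at 600 nm. Assay medium contained 2% galactose at pH 6.0; NS1-free yeast of the same strain were the positive control.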
Cruzain inh Det – cruzain (T. cruzi) inhibition with detergent | P25779 | purified cruzain, Z-FR-AMC fluorescence, 0.01% Triton | Potency, µM, for inactives: max response, negative = inhibition, actives largely listed as inhibitors | 200,000 tested, 0.43% active | AID 1478; active = well fitted curve in the direction sought with a large enough effect; inconclusive = small, poorly fitted or top-dose-only effect, or another doubt; inactive = no such curve, though single readings can be large; an effect the other way counts as inactive or inconclusive;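 note: plate controls were neutral wells for no effect and buffer without enzyme for full effect; nearly all actives have a fitted effect of over 40% in size; top concentration of the series not given in the record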
Target sequence (P25779 123-467 limits assumed): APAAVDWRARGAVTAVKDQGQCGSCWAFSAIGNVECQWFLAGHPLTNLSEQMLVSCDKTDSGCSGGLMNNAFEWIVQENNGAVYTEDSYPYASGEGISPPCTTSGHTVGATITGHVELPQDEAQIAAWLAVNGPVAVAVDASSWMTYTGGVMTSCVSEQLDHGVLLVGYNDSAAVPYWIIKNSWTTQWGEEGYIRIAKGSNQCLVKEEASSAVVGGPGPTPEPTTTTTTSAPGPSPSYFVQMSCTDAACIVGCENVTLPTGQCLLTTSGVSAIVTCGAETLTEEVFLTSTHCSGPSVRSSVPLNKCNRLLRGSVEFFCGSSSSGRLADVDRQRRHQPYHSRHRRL
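Detergent-containing run (0.01% Triton X-100) in acetate buffer pH 5.5 with 5 mM DTT: enzyme at 1.5 nM final, 15 min compound preincubation at room temperature, then 2 uM Z-FR-AMC substrate. Activity taken as 60 s fluorescence increase at 360/450 nm.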
Cruzain inh noDet – cruzain (T. cruzi) inhibition without detergent; AID 1476; P25779; Potency, µM, without a hit: max response, negative = inhibition, actives largely listed as inhibitors; purified cruzain, Z-FR-AMC fluorescence, no detergent; 200,000 tested, 2.3% active; active = well fitted curve in the direction sought with a large enough effect; inconclusive = small, poorly fitted or top-dose-only effect, or another doubt; inactive = no such curve, though single readings can be large; an effect the other way counts as inactive or inconclusive;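 note: plate controls were enzyme without inhibitor for no effect and buffer without enzyme for full effect; nearly all actives have a fitted effect of over 40% in size; top concentration of the series not given in the record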
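Purified cruzain at 1.5 nM, pre-incubated 15 min with compound at room temperature in 100 mM sodium acetate pH 5.5, 5 mM DTT, 0.00005% Triton X-100. Reaction started with 2 uM Z-FR-AMC; AMC fluorescence increase over 60 s gives rate.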
StopGo reporter – lowers the luciferase signal of an FMDV 2A StopGo reporter; human cells with a luciferase reporter of 2A StopGo recoding; control for the full effect not named in the record; Potency, µM (series often up to 57.9 µM), without a hit: at the highest dose signal change, negative = less light; 410,000 tested, 1.2% active; active = well fitted falling curve with a large enough effect; inconclusive = small, poorly fitted or top-dose-only effect; inactive = no such curve, though single readings can be large or run the other way; tested in HEK293T cells; note: % is set by controls: 0 for no effect and ±100 for the full control effect; nearly all actives have a fitted effect of over 45% in size; luciferase light after 4 h
The depositor's hits bear a star; ? = inconclusive; · = not tested or not shown; & = joins results of further samples; [ ] = dose if it differs, or a comment. Unless noted, calls come from the whole dose curve; as a rule, active means well fitted rising curve with a large enough effect; inconclusive means small, poorly fitted or top-dose-only effect; inactive means no such curve, though single readings can be large or run the other way. Potency is the fitted concentration of half-maximal effect.

SMILES	MARV entry inh	LASV entry inh	RE007 growth inh	SARS PLP yeast	NS1 inh	Cruzain inh Det	Cruzain inh noDet	StopGo reporter
CCOc1ccc(OCCC(=O)OCC(=O)Nc2ccc(Cl)cn2)cc1	8.8%	0.1%	-9.4%	-2.4%	·	·	·	-13.7%
CN(C)S(=O)(=O)c1cccc(COc2cccnc2[N+](=O)[O-])c1	-13.5%[46.1 µM]	?	1.7%	-0.1%	0.5%	·	·	-11.6%
O=C(CCC1CCCN(C(=O)c2ccncc2)C1)NCc1ccc(F)c(F)c1 (stereo not drawn)	-0.7%[46.1 µM]	0.2%	-2.4%	0.6%	-0.1%	·	·	21.7%
CC(=O)N/C(=C\c1ccccc1)C(=O)OCc1cccc(S(=O)(=O)N(C)C)c1	1.5%[46.1 µM]	-20.5%[46.1 µM]	6.2%	1.7%	0.5%	·	·	-8.9%
O=C(O)c1ccc(-c2ccc(OS(=O)(=O)c3ccccc3F)cc2)cc1	?	·	-19.1%	6.4%	-20.7%	·	·	62.5%[activator]
N[C@@H](Cc1ccccc1)c1nnc2sc(SCc3ccccc3)nn12	-26.0%	-21.9%	-4.3%	4.7%	9.7%	0.0%	6.6%	-27.8%
COc1ccccc1-c1cc2nc(C)c(CCC(=O)Nc3cc(C)ccc3C)c(C)n2n1	-8.2%[46.1 µM]	3.0%[46.1 µM]	·	·	·	-0.9%	-3.9%	-14.2%
CCc1ccc(C2CC(c3ccc(Cl)cc3)n3nc(N)nc3N2)cc1 (stereo not drawn)	·	·	3.3%	1.7%	?	·	·	0.0%
CCOC(=O)c1cnc(-c2ccccc2)nc1N	-24.3%	?	-21.5%	-10.6%	-3.4%	-3.5%	1.1%	8.5%
Nc1nc2c(c(=O)[nH]1)C(c1ccccc1)C1=C(N2)c2ccccc2C1=O (stereo not drawn)	·	·	18.8%	0.5%	4.4%	·	·	3.9%
CN1CCc2c(sc3c2c(NCc2ccco2)nc2nnnn23)C1	5.3%	22.7%	-2.8%	-4.7%	-1.4%	-1.6%	8.6%	33.4%[activator]
O=C(O)CC(NC(=O)c1ccncc1)c1ccccc1 (stereo not drawn)	?	-24.9%[46.1 µM]	12.4%	0.8%	·	·	·	-2.4%
CC1C(=O)N2CCCc3cc(NC(=O)COc4ccc(Cl)cc4)cc1c32 (stereo not drawn)	-9.0%[46.1 µM]	7.2%	3.6%	-6.2%	·	·	·	0.5%
CC(C)[C@H](NS(=O)(=O)c1ccccc1)C(=O)OCC(=O)Nc1ccccc1Sc1ccccc1	?	?	-4.2%	0.4%	13.0%	-5.6%	3.1%	?
Cc1nc(N)c(Cc2ccccc2F)c(N)n1	7.5%[46.1 µM]	20.0%[46.1 µM]	-12.4%	-2.7%	·	·	·	0.0%
CCOC(=O)CC1=C(C(=O)OCC)C(c2ccncc2)C(C#N)=C(N)O1 (stereo not drawn)	6.8%	-2.5%	4.2%	-2.5%	3.7%	-0.7%	-2.7%	-17.5%
Cc1cc(C)nc(NS(=O)(=O)c2ccc(N3C(=O)C4CC=C(Cl)CC4C3=O)cc2)n1 (stereo not drawn)	7.4%	-10.8%	5.8%	-2.1%	-20.6%	3.2%	-1.9%	56.6%[activator]
Cc1ccc(-c2nsc3c(N4CCN(C(=O)c5ccco5)CC4)ncnc23)cc1	·	·	·	?	3.55µM*	-11.3%	?	·
COc1cccc(NC(=O)NC2CCCCC2C)c1 (stereo not drawn)	11.2%[46.1 µM]	?	17.3%	-1.0%	-4.1%	·	·	39.7%[activator]
CCCCCC(=O)Nc1cc(S(=O)(=O)N2CCCCC2)ccc1N1CCCCC1	?	-5.1%	-8.8%	·	·	·	·	-9.9%
Cc1sc2c(c1C)CN(C(C)(C)C)CN2C(=O)c1ccccc1	-7.0%&-7.0%	13.2%	-0.4%	-7.2%	-10.1%	-0.6%	25.1µM*	33.1%[activator]
O=C(COC(=O)CC1CC2CCC1C2)Nc1cccc(S(=O)(=O)NC2=NCCCCC2)c1 (stereo not drawn)	-0.9%	14.0%	-12.0%	-3.3%	·	·	·	3.1%
CC(C)CNc1ncnc2c1cnn2Cc1ccccc1Cl	?	17.7%[46.1 µM]	0.4%	-1.7%	1.2%	·	·	-23.0%
COc1cc(C=O)cc(Br)c1OCC(N)=O	15.8%[46.1 µM]	-0.7%	-2.2%	0.6%	4.8%	·	·	-17.7%
COCc1[nH]nc2c1C(c1ccccc1F)C(C#N)=C(N)O2 (stereo not drawn)	-8.7%	-3.6%	-1.5%	2.2%	-8.1%	4.8%	-0.2%	-3.2%
O=C(NN=C1CCCCCCCCCCC1)c1ccccc1F	?	20.2%	-3.4%	-12.2%	-1.0%	-7.9%	-12.0%	-22.5%
COc1ccc(/C=N/NC(=O)c2cnccn2)c(OC)c1OC	·	·	-9.2%	0.4%	4.5%	·	·	-8.8%
CCCCn1cnc2c(SCc3ccccn3)nc(N)nc21	?	17.0%[46.1 µM]	3.5%	·	·	·	·	16.7%
COc1ccc(NC(=O)CSc2nccn2Cc2ccc3c(c2)OCO3)cc1	·	5.8%[46.1 µM]	·	·	·	0.1%	-5.6%	19.1%
O=C(CN(Cc1cccs1)S(=O)(=O)c1ccc(S(=O)(=O)N2CCCCC2)cc1)Nc1ccccc1	?	-0.3%	-8.4%	15.1%	6.3%	-5.6%	?	-25.1%
Cc1ncc(CO)c(/C=N/NC(=O)c2cc3c(s2)CCCC3)c1O	?	?	-6.7%	15.4%	4.9%	·	·	-6.2%
COc1ccccc1C(=O)NC(CCSC)C(=O)OCC(=O)NC(=O)NCc1ccco1 (stereo not drawn)	0.0%&0.0%	-10.6%	4.5%	-1.6%	-11.0%	?	-1.7%	-17.5%
O=c1[nH]c(/C=C\c2cccc(C(F)(F)F)c2)nc(O)c1[N+](=O)[O-]	2.7%	19.0%	0.3%	-0.8%	8.7%	·	·	?
CCN1C(=O)C(=O)N(CC(=O)c2[nH]c(C)c(C(C)=O)c2C)C1=O	11.9%[46.1 µM]	-1.6%	3.3%	0.1%	·	·	·	1.6%
COc1ccc(S(=O)(=O)NCCc2c(C)nn(C)c2Oc2ccccc2)cc1	?	-28.9%	4.8%	-1.9%	-20.1%	-5.2%	2.4%	-3.0%
CCCn1c(COc2ccccc2OC)nc2ccccc21	2.4%[46.1 µM]	-4.3%[46.1 µM]	-25.7%	1.2%	-21.2%	·	·	3.4%
CCOc1ccc(N2CSC3=C(C#N)C(c4ccco4)CC(=O)N3C2)cc1 (stereo not drawn)	14.3%	-1.1%	-1.5%	4.0%	19.3%	?	5.8%	10.1%
CCOc1cc2c(cc1OCC)C(c1c(F)cccc1Cl)CC(=O)N2 (stereo not drawn)	8.9%[46.1 µM]	1.3%[46.1 µM]	·	·	·	-4.9%	-1.0%	-21.2%
COc1cc2c(C(=O)N3CCN(c4ccc(C)cc4)C(C)C3)cn(CC(C)C)c(=O)c2cc1OC (stereo not drawn)	?	?	·	·	·	-5.6%	?	13.4%
Cn1nc2c(c1C(=O)N1CCCC(C(=O)c3cc(F)ccc3F)C1)CCCC2 (stereo not drawn)	·	·	14.9%	-0.1%	-7.2%	·	·	0.0%
COC(=O)c1ccc(N2C(=O)c3ccc(OC)c(OC)c3C2=O)cc1	2.3%	21.9%	4.1%	2.7%	-6.5%	1.7%	2.7%	5.7%
NC(=O)c1nsc(C(=O)N(CC(=O)NCc2ccco2)c2ccccc2F)c1N	17.2%	0.6%	10.8%	-10.4%	23.5%	-5.5%	-3.5%	-28.0%
COc1ccc(-n2c(SCC(=O)OC(C)C)nnc2-c2ccccn2)cc1	15.0%	5.0%	-1.5%	-0.4%	-1.1%	8.8%	8.4%	8.6%
O=C(CN1CCCCCC1)OCCN=C1NS(=O)(=O)c2ccccc21	?	8.6%	15.6%	3.5%	11.3%	6.5%	1.5%	3.2%
COc1ccc(OC)c2c1C(=O)C(Cl)=C(Cl)C2=O	·	·	?	-4.9%	-83.2%	·	·	20µM*
O=S(=O)(NCc1cn2ccsc2n1)c1cccs1	?	7.2%	10.4%	4.8%	10.1%	-1.1%	-18.5%	7.5%
CCOc1ccc(CCNC(=O)COC(=O)C2CC2)cc1OCC	?	-4.0%	-11.4%	0.8%	·	·	·	6.8%
COc1ccc(-c2cc(C(=O)OCC(=O)Nc3cc(C)on3)c3ccccc3n2)cc1OC	1.4%	-7.3%	15.1%	-4.2%	-6.5%	-9.4%	1.7%	?
Cc1nc(/C=C/c2ccccc2)cc(/C=C/c2ccccc2)n1	2.2%	1.1%	5.1%	-3.1%	0.1%	-11.4%	-7.2%	31.2%[activator]
COc1ccc2c(c1)CCc1sc(NC(=O)c3ccco3)nc1-2	·	·	-23.6%	-27.6%	-2.9%	-17.2%	-9.9%	44.4%[activator]
COc1cccc(-c2nn(C)c3sc(C(=O)N4CCN(c5cccc(C(F)(F)F)c5)CC4)cc23)c1	-1.8%[46.1 µM]	-27.0%[46.1 µM]	·	·	·	-3.3%	-2.2%	-26.1%
N#Cc1ccccc1NC(=O)c1ccc2c(c1)OCCO2	12.6%[46.1 µM]	·	3.1%	-1.9%	2.7%	·	·	40.0%[activator]
CCn1c(C(=O)O)c(CC(=O)NC2CCCCCC2)c2ccccc21	-0.9%	-7.2%	13.7%	1.2%	·	·	·	0.8%
O=C(Nc1cc(Cl)cc(Cl)c1)C1CC(=O)N(C2CCCC2)C1 (stereo not drawn)	-0.3%	2.0%	2.6%	-6.2%	·	·	·	?
CC(C)CC1CCCCC1OC(=O)CN1CCCCC1 (stereo not drawn)	-14.1%[46.1 µM]	-0.9%	-0.8%	4.1%	·	·	·	0.3%
Cc1cccc(NC(=O)CSc2ccc(-c3ccccn3)nn2)c1	·	-8.9%[46.1 µM]	·	·	·	-2.9%	7.7%	-1.2%
Cc1ccc(NC(=O)Nc2nnc(Cc3ccc(F)cc3)s2)cc1	?	-24.0%[46.1 µM]	-2.5%	-3.4%	-2.4%	·	·	7.1%
CN(C)c1ccc(/C=N/NC(=O)CNC(=O)c2ccco2)cc1	-15.1%[46.1 µM]	7.9%	-5.1%	-2.3%	·	·	·	42.1%[activator]
CC(C)(C)C(=O)Nc1ccccc1C(=O)Nc1ccncc1	-10.6%[46.1 µM]	2.8%	-2.9%	-13.0%	3.6%	-1.7%	-0.8%	-5.5%
O=C(COC(=O)Cc1cccs1)Nc1ccccc1F	9.1%	-0.3%	-12.7%	2.4%	-0.8%	1.8%	-3.9%	12.9%
